Resorufin fluor = resorufin region autofluorescence; AID 588; max dye-equivalent concentration, M; Compound fluorescence, resorufin region 547/598 nm, buffer; stronger effect = higher value; actives 0.04% (n = 59,000); active = above 10 nM dye equivalent; inconclusive = 1 to 10 nM; inactive = 1 nM or less; a few of its hits are not listed in these tables; note: highest value over a series up to 38 µM
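Tris 100 mM pH 8.0; compound added, 15 min RT; CCD imager read, ex 547 nm/em 598 nm; signal normalized to resorufin standard curve (six concentrations per plate) as dye-equivalent concentration.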
TSHR agonist = agonists of human thyroid stimulating hormone receptor; AID 926; Potency, µM (top dose mostly 57.1 µM), without a hit: at the highest dose activation, hits mostly activators; actives 0.48% (n = 73,000); HEK293-CNG-TSHR cells (CNG channel as cAMP sensor), membrane potential dye, cAMP; active = well fitted activation curve of enough size with the parental cells flat; inconclusive = any curve in the parental cells; inactive = parental cells flat and receptor cells flat or falling; note: potency is the fitted concentration of half-maximal effect; % of control where 0% means no effect; weak receptor curves with flat parental cells got no call and are not listed
Target sequence (P16473 whole entry, looked up): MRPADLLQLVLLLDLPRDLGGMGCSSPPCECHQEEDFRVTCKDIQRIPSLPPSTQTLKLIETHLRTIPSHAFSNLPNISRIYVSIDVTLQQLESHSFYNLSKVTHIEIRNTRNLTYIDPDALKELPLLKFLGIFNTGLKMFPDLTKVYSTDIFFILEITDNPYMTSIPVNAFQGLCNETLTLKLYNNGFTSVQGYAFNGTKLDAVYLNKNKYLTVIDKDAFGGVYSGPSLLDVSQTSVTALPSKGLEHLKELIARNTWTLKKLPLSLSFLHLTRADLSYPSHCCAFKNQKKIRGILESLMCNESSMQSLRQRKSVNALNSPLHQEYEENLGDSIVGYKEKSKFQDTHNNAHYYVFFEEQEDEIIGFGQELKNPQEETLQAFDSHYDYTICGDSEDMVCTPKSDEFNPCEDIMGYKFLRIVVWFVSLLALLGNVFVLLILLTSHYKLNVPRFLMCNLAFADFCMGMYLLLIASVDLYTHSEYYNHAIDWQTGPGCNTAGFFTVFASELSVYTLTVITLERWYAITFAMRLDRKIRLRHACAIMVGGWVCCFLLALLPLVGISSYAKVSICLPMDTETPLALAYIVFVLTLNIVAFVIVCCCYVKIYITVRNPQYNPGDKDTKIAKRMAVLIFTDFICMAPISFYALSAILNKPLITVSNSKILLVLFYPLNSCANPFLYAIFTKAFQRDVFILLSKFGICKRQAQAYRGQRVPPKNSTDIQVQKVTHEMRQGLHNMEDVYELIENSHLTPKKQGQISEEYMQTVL
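HEK 293 cells stably expressing TSHR and a modified CNG channel, with CNG-only parental cells as counterscreen, were preloaded 60 min at room temperature with membrane potential dye containing 100 uM RO 20-1724. Compound exposure was 30 min, and depolarization was read as fluorescence at 590 nm.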
AID923 = qHTS Assay for Allosteric/Competitive Inhibitors of Caspase-1: Spectroscopic Profiling in AFC Spectral Region; actives 1.1% (n = 75,000); Potency, µM (series often up to 57.5 µM), for the others: at the highest dose fluorescence increase, actives largely listed as activators; AID 923, 2007; compound fluorescence, AFC spectral region (405/520 nm); almost no hit is shown here; active = well fitted activation curve with a large enough effect; inconclusive = small, poorly fitted or top-dose-only effect;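 note: potency is the fitted concentration of half-maximal effect; 0% is about no effect; scaled to a free AFC standard on each plate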
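Compound autofluorescence profiled at 405 nm ex/520 nm em during kinetic caspase 1 run (50 nM enzyme, 5 uM Ac-WEHD-AFC, HEPES pH 7.5, 10 mM DTT). Titration up to 57 uM; baseline from regression intercept, normalized to AFC standard curve.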
A647 autofl = compound autofluorescence in A647 spectral region; Compound fluorescence, A647 channel (570/671 nm), Tris buffer; 59,000 tested, under 10 active; max dye-equivalent concentration, M; active means above 1 µM dye equivalent; inconclusive means 0.1 to 1 µM; inactive means 0.1 µM or less;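 note: values scaled relative to a standard on each plate; highest value over a series up to 38 µM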
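Fluorescence read (570 nm ex, 671 nm em) after 15 min RT incubation of compounds in 100 mM Tris buffer, pH 8.0; values expressed as dye-equivalent concentration against a six-point A647 standard series on each plate.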
A488 fluor = A488 region autofluorescence. compound autofluorescence, A488 spectral region, dye equivalency; stronger effect = higher value. max dye equivalency, M. actives 0.1% (n = 59,000); active = above 10 nM dye equivalent; inconclusive = 1 to 10 nM; inactive = 1 nM or less; about half of its hits are not listed in these tables;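 note: highest value over a series up to 38 µM; compound alone in buffer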
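Read-out: relative fluorescence at 480/540 nm, expressed as Alexa 488 dye-equivalent concentration from a six-point A488 standard included per plate. Conditions: 100 mM Tris, pH 8.0; 15 min incubation, room temperature.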
Numbers without * were called inactive; i = inactive; ? = inconclusive; . = no result given; [ ] = another dose, or the depositor's remark. Not all compounds are listed; the hit share may differ from the screen's.

SMILES	Resorufin fluor	TSHR agonist	AID923	A647 autofl	A488 fluor
COc1ccc(OC(C)C(=O)N2CC(C)OC(C)C2)cc1 (stereo not drawn)	i	8%	0.6%	1e-09	i
CCOc1cc(C(=O)Nc2nnc(C)s2)cc(OCC)c1OCC	.	-7%	0.1%	.	.
O=C(CCNc1cccc(C(F)(F)F)c1)c1ccco1	.	18%[11.4 µM]	1.1%	.	.
Cc1cc(NC(=O)CSc2nc3ccccc3n2CC(=O)N2CCCCC2)no1	i	2%[11.4 µM]	1.0%	1e-09	i
CN(C)Cc1c[nH]c2nc[nH]c(=O)c12	i	4%[11.4 µM]	-0.7%[11.5 µM]	4.1e-08	i
COc1ccccc1NC(=O)CSc1nnc(-c2ccc(NC(C)=O)cc2)n1C	i	.	.	1e-09	i
CCOc1cc(C2CC(=O)NC3=C2C(=O)C(C(=O)OC)C(C)C3)cc(Cl)c1O (stereo not drawn)	i	-2%	1.0%	4.6e-08	i
COc1ccccc1-c1nc(C#N)c(N2CCN(Cc3ccccc3)CC2)o1	i	?	-1.2%	1.4e-08	i
O=[N+]([O-])c1nccn1C[C@H](O)CN1CCCCC1	i	13%[11.4 µM]	-0.5%[11.5 µM]	4.6e-08	i
CC(C)N(CCCNC(=O)CC1Oc2ccccc2NC1=O)Cc1ccccc1 (stereo not drawn)	.	10%	-0.4%	.	.
CCn1cc(C(=O)NCc2ccc(Cl)cc2)c(=O)c2cc(S(=O)(=O)N3CCOCC3)ccc21	.	-3%	1.1%	.	.
COc1ccc(N2C(=O)CCC(C(=O)c3ccccc3)=C2C)cc1	.	12%[11.4 µM]	0.4%	.	.
CC(=O)Nc1cccc(-c2nnc(-c3ccccc3)o2)c1	i	?	-1.0%	3.7e-09	i
CCCC(=O)Nc1cccc(-c2cn3ccsc3n2)c1	i	-1%	-1.2%	1.6e-09	i
O=C1CC(c2ccccc2)c2cc(O)ccc2O1 (stereo not drawn)	.	0%	-1.9%	.	.
Cc1ccccc1CS(=O)(=O)Cc1ccc(C(=O)NCC2CCCO2)o1 (stereo not drawn)	i	-2%	0.4%	4.4e-08	i
CCCCOc1ccc(NC(=O)CSc2nnnn2C)cc1	i	.	0.3%	1e-09	i
COc1cccc(-c2cncnc2NCc2ccc(OC)cc2OC)c1	i	?	1.0%	2e-08	i
CCc1cc2cc(C(=O)Nc3ccccc3F)sc2s1	i	?	-1.4%	5.1e-08	i
COc1ccc(CCNc2oc(-c3ccccc3OC)nc2C#N)cc1OC	i	10%	0.2%	5.8e-09	i
Cc1cc(C(=O)NCc2cc(C)n(C)n2)sc1-c1ccccc1	i	?	-1.4%	1e-09	i
COc1ccc(CCn2c(=N)c(C(=O)NCc3ccco3)cc3c(=O)n4cccc(C)c4nc32)cc1	i	?	20%	4e-08	i
Cn1c(Cn2c(=O)sc3ccccc32)nnc1SCC(=O)N1CCN(c2ccccc2)CC1	.	-1%	-1.3%	.	.
Cc1noc(C)c1C(=O)N1CCC[C@@]2(CCN(C(=O)Nc3cccc(C#N)c3)C2)C1	i	22%	13%	1.5e-09	i
C/C=C/Cn1c(SCCCc2ccccc2)nc2c1c(=O)[nH]c(=O)n2C	.	84%	0.9%	.	.
(next part)
SMILES	Resorufin fluor	TSHR agonist	AID923	A647 autofl	A488 fluor
COc1ccccc1N1CCN(C(=O)C(C)N(c2ccc(C)cc2)S(C)(=O)=O)CC1 (stereo not drawn)	i	0%	-1.9%	1e-09	i
Cc1nc2c(c(=O)n1CCC(C)C)c1nc3ccccc3nc1n2Cc1ccc2c(c1)OCO2	i	16%	1.4%	3.9e-09	i
COc1ccc(C(=O)O)cc1NS(=O)(=O)c1cccc2nsnc12	i	8%[11.4 µM]	0.3%	2.3e-08	i
Cc1nc2ccccc2c2oc(C(=O)N3CCc4ccccc43)cc12	.	8%	-0.3%	.	.
COc1ccc(NC(=O)N2CCN(c3nc(-c4cccc(OC)c4)cs3)CC2)cc1	i	7%	3.2%	1e-09	i
COc1ccc(CNc2cc(-c3cccnc3)ncn2)c(OC)c1	i	?	1.1%	2.5e-08	i
Cc1ccc(-c2cc(C)nc3ncnn23)cc1	.	?	-0.8%	.	.
c1ccc(-n2ncc3c(NCc4ccco4)ncnc32)cc1	i	2%	-2.5%	2.1e-08	i
CC1(C)N(O)CC(c2cccs2)=[N+]1[O-]	.	0%[11.4 µM]	0.2%	.	.
CN(Cc1ccccc1)c1oc(-c2ccco2)nc1C#N	i	?	3.4%	4.2e-09	i
COc1ccccc1-n1c(C)nc(=O)c(-c2ccccc2)c1C	i	-8%	-1.0%	2.4e-08	i
CN1CCN(c2ncc3ncc(=O)n(CCC#N)c3n2)CC1	i	6%	11%	1e-09	i
COCCCNC(=O)CCc1nc(-c2ccccc2Cl)no1	i	2%	0.0%	3.6e-08	i
Cc1cc([N+](=O)[O-])ccc1N	.	-3%	1.3%	.	.
O=C(CCn1c(=S)[nH]c2cc3c(cc2c1=O)OCO3)NCCN1CCCC1	i	-2%	-0.6%	1e-09	i
CO[C@H]1COC(=O)C/C=C\[C@@H](C)[C@H](OC)COC(=O)CCC[C@@H]1C	.	-6%[11.4 µM]	-0.4%[11.5 µM]	.	.
CC(=O)N1CCCc2cc(S(=O)(=O)NCc3ccc(C)cc3)ccc21	i	20%	0.5%	7e-09	i
COC(=O)c1ccccc1NC(=O)CSc1nnc(C(CO)NC(=O)c2ccccc2)n1C (stereo not drawn)	i	-2%	-1.0%	2.6e-09	i
COc1ccccc1CN(CC(=O)NCc1ccco1)C(=O)CNS(=O)(=O)c1ccccc1	i	?	-1.4%	1e-09	i
CCOC(=O)c1c(C)c(C(=O)NCCCOC(C)C)c(C)n1C	i	3%[11.4 µM]	2.2%	1e-09	i
Cc1nc(SCC(=O)Nc2ccccc2)c2oc3ccccc3c2n1	i	16µM*	0.1%	2.5e-08	i
O=C(NCCc1ccccc1)C1CCCN1C(=O)NCc1ccccc1 (stereo not drawn)	i	1%	4.6%	4.2e-08	i
CCOC(=O)c1c(C)nc2c(c1C)/C(=N/O)CC(C)(C)C2	.	4%	0.7%	.	.
O=C(NCc1ccccc1)c1ccc(F)c(S(=O)(=O)N2CCOCC2)c1	i	-3%	0.5%	1e-09	i
COc1ccc(OC)c(N(CC(=O)NC2CC2)S(=O)(=O)c2ccc(C)cc2)c1	.	4%	0.9%	.	.
Next compounds
SMILES	Resorufin fluor	TSHR agonist	AID923	A647 autofl	A488 fluor
CN(C(=O)c1cc2n(n1)C(C(F)(F)F)CC(c1ccco1)N2)c1ccc(OC(F)(F)F)cc1 (stereo not drawn)	i	-18%	2.1%	3e-08	i
O=C(OC(C(=O)NCC1CCCO1)c1ccc(F)cc1)c1ccco1 (stereo not drawn)	i	-2%	2.7%	6e-09	i
CNC(=O)c1ccc(N(Cc2ccccc2)S(C)(=O)=O)cc1	i	1%	-0.7%	1e-09	i
CC(C)N(Cc1nnc(-c2ccccc2Cl)o1)C(=O)c1cccc(C#N)c1	i	7%	-0.3%	2.2e-09	i
O=C(CNS(=O)(=O)c1ccc(C(=O)N2CCOCC2)cc1)N1CCOCC1	i	-7%	-0.8%	2.9e-08	i
COCCNc1ccnc(-c2cccc(NS(C)(=O)=O)c2)n1	i	7%	1.0%	1e-09	i
Cc1oc(-c2ccc(Cl)cc2)nc1CS(=O)CC(=O)NCCN1CCCC1 (stereo not drawn)	.	-9%	0.3%	.	.
COc1ccc(Oc2nc(C)cc(C)c2C#N)cc1	i	.	0.8%	5.6e-09	i
O=S(=O)(O)c1cc(S(=O)(=O)O)c2c(N=Nc3cccc4ccccc34)c(O)ccc2c1	i	24%[11.4 µM]	-4.6%[11.5 µM]	3.3e-08	i
COc1ccc(C2=NO[C@@H]3C(=O)N(C4CCCCC4)C(=O)[C@H]23)cc1OC	i	?	-1.1%	1e-09	i
COc1cccc(-c2nc(Cc3ccc(OC)c(OC)c3)no2)c1	.	?	0.8%	.	.
CC(CN1CCNCC1)(NS(=O)(=O)c1ccccc1)c1ccccc1 (stereo not drawn)	.	3%	-0.8%	.	.
O=C1C=C(N2CCN(c3ccccn3)CC2)C(=O)c2c(O)ccc(O)c21	i	?	-1.0%[11.5 µM]	1e-09	i
CCS(=O)(=O)N1Cc2ccccc2CC1C(=O)N1CCN(c2cccc(C)c2C)CC1 (stereo not drawn)	i	14%	-0.2%	2.9e-08	i
CCN1/C(=C/C(=O)c2ccco2)Sc2ccccc21	i	5%	12%	1.5e-08	i
CCCCNC(=O)CSc1nc2cc3c(cc2c(=O)n1CCCN(CC)CC)OCO3	i	?	0.4%	1e-09	i
O=C1c2ccccc2C(=O)N1CCCC(=O)N1CCCc2ccccc21	i	2%	-1.6%	4.7e-08	i
COc1cccc(NC(=O)c2nnn(Cc3ccc(Br)cc3F)c2N)c1	.	17%	1.7%	.	.
CCOC(=O)[C@]1(CC(=O)O)CCCC1=O	i	0%[11.4 µM]	0.4%[11.5 µM]	1e-09	i
CCCN(CCC)CCNC(=O)c1cc2c(C)nc3ccccc3c2o1	i	10%	1.2%	1.8e-08	i
Cn1c(CSc2nnc(SCc3ccccc3)s2)nc2ccccc21	i	?	5.7%	1e-09	i
COc1ccc(Cl)cc1NC(=O)CN(C(=O)c1ccco1)C1CCCCC1	i	?	-0.1%	6.6e-09	i
COC(=O)CN1C(=O)C2(C(C#N)=C(N)Oc3cc(C)oc(=O)c32)c2ccccc21 (stereo not drawn)	i	-1%[11.4 µM]	1.8%	2.2e-08	i
Cc1nc2c(c(N3CCOCC3)n1)OCC(=O)N2	i	.	.	6.7e-09	i
O=C(Nc1ccc2c(c1)OCO2)c1ccccc1SCC(=O)N1CCCC1	i	1%	2.1%	3.1e-09	i
COc1ccc(Oc2ncc3ncc(=O)n(C4CC4)c3n2)cc1	i	4%	3.6%	1e-09	i
O=C(Nc1ccc(N2CCN(C(=O)c3ccco3)CC2)c(Cl)c1)c1cc2ccccc2o1	i	24%	6.3%	1e-09	i
N#CCCN1CCN(Cn2c3ccccc3c3ccccc32)CC1	i	0%	-2.0%	1e-09	i
COc1cc(OC)c(C2N(c3ccc(Cl)c(Cl)c3)C(=O)C3CCCN32)cc1OC (stereo not drawn)	i	4%	-0.1%	1.2e-09	i
NC(=O)CSc1nnc(Cc2ccc3c(c2)OCO3)n1C1CCCCC1	i	8%	-0.3%	4.1e-09	i

Ordered by molecular weight (ascending): some entries from above
SMILES	Resorufin fluor	TSHR agonist	AID923	A647 autofl	A488 fluor
Cc1nc2c(c(N3CCOCC3)n1)OCC(=O)N2	i	.	.	6.7e-09	i
COc1ccc(Oc2nc(C)cc(C)c2C#N)cc1	i	.	0.8%	5.6e-09	i
O=C1C=C(N2CCN(c3ccccn3)CC2)C(=O)c2c(O)ccc(O)c21	i	?	-1.0%[11.5 µM]	1e-09	i
CC(C)N(Cc1nnc(-c2ccccc2Cl)o1)C(=O)c1cccc(C#N)c1	i	7%	-0.3%	2.2e-09	i
O=C(Nc1ccc2c(c1)OCO2)c1ccccc1SCC(=O)N1CCCC1	i	1%	2.1%	3.1e-09	i
Cn1c(CSc2nnc(SCc3ccccc3)s2)nc2ccccc21	i	?	5.7%	1e-09	i
COC(=O)CN1C(=O)C2(C(C#N)=C(N)Oc3cc(C)oc(=O)c32)c2ccccc21 (stereo not drawn)	i	-1%[11.4 µM]	1.8%	2.2e-08	i
Cc1oc(-c2ccc(Cl)cc2)nc1CS(=O)CC(=O)NCCN1CCCC1 (stereo not drawn)	.	-9%	0.3%	.	.
COc1cccc(NC(=O)c2nnn(Cc3ccc(Br)cc3F)c2N)c1	.	17%	1.7%	.	.
CCS(=O)(=O)N1Cc2ccccc2CC1C(=O)N1CCN(c2cccc(C)c2C)CC1 (stereo not drawn)	i	14%	-0.2%	2.9e-08	i
CCCCNC(=O)CSc1nc2cc3c(cc2c(=O)n1CCCN(CC)CC)OCO3	i	?	0.4%	1e-09	i

Screens deposited in PubChem by National Center for Advancing Translational Sciences (NCATS).
